# Compound activity: PubChem BioAssay, several laboratories
# Vif A3G = inhibitors of Vif binding to APOBEC3G peptide, primary screen, biochemical, TR-FRET, GST-Vif 1-94, biotin-A3G peptide, dose response retest (AID 1117319) | TR-FRET GST-Vif / biotin-A3G peptide binding; higher % means a stronger effect; test concentration not given here; strong numbers were not always called active | inhibition, %, or IC50 in µM where a hit was titrated | 0.57% of 260,000 active;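 active = above the screen mean plus three standard deviations and confirmed in dose response; inconclusive = results disagree or hit not tested in dose response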;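 also: Vif residues 1-94 fused to GST binding biotinylated APOBEC3G peptide 110-148; 0% = full assay without inhibitor and 100% = GST in place of GST-Vif; retest series ran down from 100 µM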
# HNF4A DNA FP = change in binding of human HNF4 alpha to DNA; HNF4a-FITC DNA binding, fluorescence polarization, 1 h; P41235; AID 1224865; 0.3% of 360,000 active; activity change, % at 10 µM; in the data active = activity change above about 30%, passing the limit was not always enough;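 also: controls were the assay level and a saturating level of protein; the project sought stronger binding though the title names inhibitors; some compounds called inactive have numbers as strong as hits; positive values seem to mean higher polarization but the record does not say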
# Target sequence (P41235 whole entry, looked up): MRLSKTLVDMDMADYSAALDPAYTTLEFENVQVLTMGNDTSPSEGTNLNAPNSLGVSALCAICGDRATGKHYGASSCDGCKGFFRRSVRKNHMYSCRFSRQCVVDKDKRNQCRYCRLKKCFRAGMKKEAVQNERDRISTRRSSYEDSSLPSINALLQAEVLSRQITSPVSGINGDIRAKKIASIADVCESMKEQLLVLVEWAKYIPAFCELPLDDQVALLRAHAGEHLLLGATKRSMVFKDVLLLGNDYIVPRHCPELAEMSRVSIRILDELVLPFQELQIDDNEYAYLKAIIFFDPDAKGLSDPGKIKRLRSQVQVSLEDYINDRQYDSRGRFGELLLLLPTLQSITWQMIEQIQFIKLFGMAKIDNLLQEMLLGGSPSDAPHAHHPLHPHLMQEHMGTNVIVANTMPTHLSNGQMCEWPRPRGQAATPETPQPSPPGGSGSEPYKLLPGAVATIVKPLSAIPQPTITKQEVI
# RanGTP-Imp inh = disruptors of Ran-importin-beta complex formation – biochemical, FRET, CFP-Ran, YFP-importin-beta, homogeneous, primary screen; cell-free CFP-Ran/YFP-importin-beta FRET ratio; inhibition, % (test concentration not listed); 1.1% of 300,000 active;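 active = most replicates above 15%; inconclusive = exactly half above 15%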;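 also: 0% = DMSO wells and 100% = Ran loaded with GDP instead of GTP; wells of about 40 µL received 100 nL stock; the first replicate is given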
# Beta2AR agonist = activates human beta-2 adrenergic receptor causing internalization | 0.43% of 340,000 active | Am2.2-beta2AR cells, FAP receptor internalization, flow cytometry; reference of the scale not given here | response, % (concentration not given with the values) | AID 504454 | P07550;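 active = response above a set limit, near 3 SD of response in nonfluorescent compounds, cut at about 42% in these data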;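 also: stock transfer was 100 nL into about 11 µL; a reference agonist was the positive control; negative values mostly stem from fluorescent compounds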
# Target sequence (P07550 whole entry, looked up): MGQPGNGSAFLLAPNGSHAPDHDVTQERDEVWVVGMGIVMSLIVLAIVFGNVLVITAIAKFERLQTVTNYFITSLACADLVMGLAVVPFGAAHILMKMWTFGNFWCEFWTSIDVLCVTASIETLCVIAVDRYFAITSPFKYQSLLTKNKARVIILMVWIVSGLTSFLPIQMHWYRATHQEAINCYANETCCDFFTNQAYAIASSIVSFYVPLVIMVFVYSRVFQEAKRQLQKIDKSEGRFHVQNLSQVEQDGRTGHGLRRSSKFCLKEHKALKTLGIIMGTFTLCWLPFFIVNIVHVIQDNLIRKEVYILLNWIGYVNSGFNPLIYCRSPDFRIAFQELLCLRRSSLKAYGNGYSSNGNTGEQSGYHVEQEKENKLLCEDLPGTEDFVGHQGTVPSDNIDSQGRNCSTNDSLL
# LANA-H2B inh = blocks KSHV LANA binding to histone H2A/H2B. cell-free LANA-H2A/H2B peptide, fluorescence polarization. inhibition, % (concentration not given with the values). 0.6% of 320,000 active. AID 2629; in the data active = inhibition mostly above about 10%, no sharp cut-off; inactive = mostly below about 6.7%;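 also: stock transfer was 7.5 nL into about 10 µL; 0% = median of vehicle wells and 100% = median of positive control wells; one replicate is shown; the record names a cut of 25% in any replicate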
# ALR H2O2 inh = inhibitors of human sulfhydryl oxidase ALR | AID 485317 | 3.8% of 290,000 active | P55789 | inhibition, % (concentration not given with the values) | purified ALR, DTT oxidation, H2O2 HRP-luminol luminescence;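 active = mean and each replicate at 75% or more; inconclusive = only one of the two met; inactive = neither met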;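 also: stock transfer was 7.5 nL into about 7.5 µL; 0% = neutral wells and 100% = wells with inactivated enzyme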
# Calb FLC = C. albicans growth modulation with fluconazole | C. albicans CaCi-2 (fluconazole-resistant clinical isolate) + fluconazole, Alamar Blue growth, 48 h | growth inhibition, % (concentration not given with the values) | 0.57% of 300,000 active;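 active = most replicates above 75%; inconclusive = exactly half above 75%; inactive = most below 75%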;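 also: all wells also contain fluconazole at 8 µg/ml as a sub-toxic cotreatment; 0% = median of DMSO wells and 100% = median of geldanamycin control wells; wells of about 8 µL received 7.5 nL stock; the first replicate is given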
# Starred values were filed as active, the others as inactive; ? = inconclusive; nt = no result given.
1) COc1ccccc1C(=O)Nc1ccc(S(=O)(=O)N(C)c2ccccc2)cc1
2) c1ccc(C2=NOC(c3nnc(-c4ccccc4)o3)C2)cc1 (stereo not given)
3) COc1ccc(N2CC(C(=O)NCCC3=CCCCC3)CC2=O)c(OC)c1 (stereo not given)
4) COc1ccc(/C=N/NC(=O)c2c(Br)cnn2C)c2ccccc12
5) O=C(Nc1cccc(C(F)(F)F)c1)C(Sc1ncnc2ccccc12)c1ccccc1 (stereo not given)
6) O=C(N/N=C/C(Cl)=C/c1ccccc1)c1ccncc1
7) CCOC(=O)CSc1nc2cc(C(=O)NCc3ccco3)ccc2c(=O)n1-c1ccc(F)cc1
8) CCn1c(CC(C)C)n[nH]c1=S

Assay by compound	1	2	3	4	5	6	7	8
Vif A3G	nt	nt	0%	-14%	6%	5%	10%	?
HNF4A DNA FP	0.8	5.1	-3.1	3.2	6.5	0.3	4.0	0.1
RanGTP-Imp inh	-2.1	0.4	-7.6	?	-2.3	0.0	?	-2.7
Beta2AR agonist	-1	-10	1	4	-9	-5	-2	-2
LANA-H2B inh	-3.0	-5.9	-0.1	3.5	4.5	2.8	1.5	-3.7
ALR H2O2 inh	-2	nt	-1	-24	-2	0	nt	10
Calb FLC	-1	17	5	11	-6	-9	5	-17

9) CC(NC(=O)CCNS(=O)(=O)c1ccc2c(c1)c(=O)n(C)c(=O)n2C)c1ccccc1 (stereo not given)
10) COc1ccc(C(=O)C2CCN(C(=O)c3ccco3)CC2)cc1
11) COC(=O)C1C(c2ccccc2)NC(=O)NC1(O)C(F)(F)Cl (stereo not given)
12) O=S1(=O)CCN2C=Nc3sc4c(c3C2=N1)CCCC4
13) C=CCOc1cccc(C2C(C(=O)c3ccc(C)o3)=C(O)C(=O)N2Cc2ccncc2)c1 (stereo not given)
14) COc1cc(CCC(=O)Nc2cnc3ccccc3c2)cc(OC)c1OC
15) Cc1ccccc1NC(=S)NNC(=O)c1ccncc1
16) Cc1cc2cc(CN(Cc3cccs3)C(=S)NCC3CCCO3)c(=O)[nH]c2cc1C (stereo not given)

Assay by compound	9	10	11	12	13	14	15	16
Vif A3G	-2%	3%	-4%	-4%	4%	-7%	8%	nt
HNF4A DNA FP	-2.5	-1.1	2.4	0.6	4.0	1.9	6.7	0.3
RanGTP-Imp inh	-0.4	8.3	5.0	-4.7	?	0.3	-2.7	2.6
Beta2AR agonist	0	-11	-2	19	2	-3	4	0
LANA-H2B inh	-0.3	-2.7	-9.1	-0.1	-0.5	-4.0	-6.2	-4.8
ALR H2O2 inh	-3	-4	-3	-5	9	-1	50	0
Calb FLC	-8	-2	3	1	8	1	-5	15

17) Cc1c(O)ccc(/C=N/Nc2nc(-c3cccnc3)nc3ccccc23)c1O
18) Nc1nnnn1/N=C/c1cc([N+](=O)[O-])ccc1O
19) O=Cc1cn(-c2ccccc2)nc1-c1ccc(F)cc1
20) CC(C)c1ccc(C2C(C#N)=C(N)Oc3c2oc(CO)cc3=O)cc1 (stereo not given)
21) N#CCc1ccc(Oc2ncc(C(F)(F)F)cc2Cl)cc1
22) Cc1ccc(-c2n[nH]c(=S)n2/N=C/c2ccc(C(=O)O)cc2)cc1
23) O=C(CCCCCNC(=O)N1CCn2c1nc1ccccc12)NCCc1ccccc1
24) Cc1ccc(Nc2ccc(C(=O)NC3CCCCC3)cn2)cc1

Assay by compound	17	18	19	20	21	22	23	24
Vif A3G	?	-1%	?	0%	nt	0%	nt	0%
HNF4A DNA FP	7.5	1.9	2.4	-1.5	0.9	3.1	2.5	4.5
RanGTP-Imp inh	-1.4	2.4	1.7	4.8	-1.7	-0.4	0.0	-3.2
Beta2AR agonist	22	-3	-8	-3	4	1	-13	12
LANA-H2B inh	-2.1	-1.6	5.4	-3.9	2.3	0.3	0.3	2.8
ALR H2O2 inh	14	nt	-6	33	-1	90*	22	nt
Calb FLC	0	-9	19	27	42	0	4	2

25) COc1cnn(-c2cc(Oc3ccc(C)cc3)ncn2)c(=O)c1Cl
26) CN(CC(=O)O)S(=O)(=O)c1cccs1
27) CCOc1ccc(N2C(=O)CN(c3cccc4ccccc34)C2=S)cc1
28) O=C(CC1CCCCC1)N1CCN(c2ccccn2)CC1
29) O=C(NCCCCc1ccccc1)Nc1ccc(F)cc1
30) CCOC(=O)Cn1cc(C(=O)C2CC2)c2ccccc21
31) Cc1cccc(OCCC(=O)OCc2csc(CC(=O)Nc3ccccc3C)n2)c1
32) Cc1ccc(-c2nc(-c3ccncc3)no2)cc1Cl

Assay by compound	25	26	27	28	29	30	31	32
Vif A3G	5%	-1%	7%	-4%	-1%	2%	-13%	-8%
HNF4A DNA FP	1.7	0.7	1.3	3.0	2.8	-2.0	-0.2	-1.3
RanGTP-Imp inh	3.6	-1.1	5.5	0.4	0.4	-1.8	nt	13
Beta2AR agonist	1	1	10	-3	0	3	8	-6
LANA-H2B inh	-6.2	-9.4	2.3	4.2	11	2.8	-2.0	-3.5
ALR H2O2 inh	-4	2	3	2	-4	-5	-4	-13
Calb FLC	2	-2	-15	-2	-4	0	nt	-7

# Ordered by length of the SMILES (lowest first): 11 of the compounds above.
26) CN(CC(=O)O)S(=O)(=O)c1cccs1
29) O=C(NCCCCc1ccccc1)Nc1ccc(F)cc1
32) Cc1ccc(-c2nc(-c3ccncc3)no2)cc1Cl
30) CCOC(=O)Cn1cc(C(=O)C2CC2)c2ccccc21
21) N#CCc1ccc(Oc2ncc(C(F)(F)F)cc2Cl)cc1
24) Cc1ccc(Nc2ccc(C(=O)NC3CCCCC3)cn2)cc1
25) COc1cnn(-c2cc(Oc3ccc(C)cc3)ncn2)c(=O)c1Cl
27) CCOc1ccc(N2C(=O)CN(c3cccc4ccccc34)C2=S)cc1
23) O=C(CCCCCNC(=O)N1CCn2c1nc1ccccc12)NCCc1ccccc1
31) Cc1cccc(OCCC(=O)OCc2csc(CC(=O)Nc3ccccc3C)n2)c1

Assay by compound	26	29	32	30	21	24	25	27	23	31
Vif A3G	-1%	-1%	-8%	2%	nt	0%	5%	7%	nt	-13%
HNF4A DNA FP	0.7	2.8	-1.3	-2.0	0.9	4.5	1.7	1.3	2.5	-0.2
RanGTP-Imp inh	-1.1	0.4	13	-1.8	-1.7	-3.2	3.6	5.5	0.0	nt
Beta2AR agonist	1	0	-6	3	4	12	1	10	-13	8
LANA-H2B inh	-9.4	11	-3.5	2.8	2.3	2.8	-6.2	2.3	0.3	-2.0
ALR H2O2 inh	2	-4	-13	-5	-1	nt	-4	3	22	-4
Calb FLC	-2	-4	-7	0	42	2	2	-15	4	nt

22) Cc1ccc(-c2n[nH]c(=S)n2/N=C/c2ccc(C(=O)O)cc2)cc1

Assay by compound	22
Vif A3G	0%
HNF4A DNA FP	3.1
RanGTP-Imp inh	-0.4
Beta2AR agonist	1
LANA-H2B inh	0.3
ALR H2O2 inh	90*
Calb FLC	0

# The list goes on.
33) Cc1nc2ccccc2nc1OCC(=O)NCC(F)(F)F
34) Cc1cc([N+](=O)[O-])ccc1NC(=O)c1sc2ncn(CC(=O)N3CCOCC3)c(=O)c2c1C
35) COc1cccc(OC)c1C(=O)Nc1ccc2nc(C)c(C)nc2c1
36) Cc1ccc(-n2c(-c3ccccc3)c[nH]c2=S)cc1
37) Cc1cccc(C)c1NC(=O)COC(=O)CN1C(=O)C2CCCCC2C1=O (stereo not given)
38) COc1ccc(CC(NC(C)=O)C(=O)N2CCN(C(=O)Nc3cccc(Cl)c3)CC2)cc1OC (stereo not given)
39) CN(C)S(=O)(=O)c1ccc(N2CCCC2=O)c([N+](=O)[O-])c1
40) CC(=O)N/C(=C\c1ccccc1)C(=O)OCC(=O)NC(C)C12CC3CC(CC(C3)C1)C2 (stereo not given)

Assay by compound	33	34	35	36	37	38	39	40
Vif A3G	nt	nt	nt	nt	-7%	-4%	-1%	-3%
HNF4A DNA FP	2.4	0.9	1.8	2.0	-1.1	-1.4	1.2	-0.5
RanGTP-Imp inh	-3.6	-0.4	2.3	0.3	nt	-1.2	1.0	-1.6
Beta2AR agonist	-4	4	0	3	0	9	10	-3
LANA-H2B inh	5.0	0.2	2.0	1.9	nt	4.3	2.8	6.6
ALR H2O2 inh	nt	-3	1	8	nt	0	-8	-4
Calb FLC	-6	19	7	-1	nt	?	-10	4

41) Cc1nc(Sc2ccccc2)c(C#N)cc1-c1ccccc1
42) O=C(c1ccccc1)N1CCN(C(=O)c2nn3c(C(F)(F)F)cc(-c4ccco4)nc3c2Br)CC1
43) COc1ccccc1N1CCN(C(CNS(=O)(=O)c2ccccc2)c2cccnc2)CC1 (stereo not given)
44) CCC(C(=O)Nc1nc(C)c(C)s1)c1ccccc1 (stereo not given)
45) O=C(Nc1nnc(C2=COCCO2)o1)c1cccc(F)c1
46) CS(=O)(=O)N1CCC(C(=O)NCc2ccc(F)cc2Cl)CC1
47) O=C(Nc1cc(S(=O)(=O)Nc2ccc(Cl)cc2)ccc1N1CCCCC1)c1ccc(F)cc1
48) CC(C)CCn1c(SCC(=O)NC2CCS(=O)(=O)C2)nc2cc(Cl)ccc2c1=O (stereo not given)

Assay by compound	41	42	43	44	45	46	47	48
Vif A3G	-6%	nt	6%	-7%	nt	1%	nt	-12%
HNF4A DNA FP	2.2	2.6	-3.3	-1.8	-13	-0.9	2.0	2.0
RanGTP-Imp inh	6.7	0.2	4.2	0.3	nt	-5.6	0.0	-0.6
Beta2AR agonist	3	-5	-9	8	0	8	8	-16
LANA-H2B inh	130*	3.6	10	6.8	-3.8	3.3	-4.6	-3.1
ALR H2O2 inh	0	nt	24	-13	-1	-1	-4	1
Calb FLC	-19	18	1	-6	nt	11	-2	0

49) Cc1ccc(S(=O)(=O)N2CCN(C(=O)COC(=O)CCOc3cc(C)ccc3C)CC2)cc1
50) CCN(CC)CCOc1nnc(-c2ccc(C)cc2)c2ccccc12
51) Cc1cc(C)n(CC(=O)N2CCCC(N3CCN(c4ccc(F)cc4)CC3)C2)n1 (stereo not given)
52) CCn1c(=S)[nH]c2sc3c(c2c1=O)CCCC3
53) CNC(=O)c1cn2c3c(ccc(Cl)c3c1=O)OC(C)C2 (stereo not given)
54) Cc1ccc(OCC(=O)N2CCC(C)CC2)c([N+](=O)[O-])n1
55) O=C1CN(c2nc3ccccc3n3cnnc23)CC(=O)N1CCc1ccccc1
56) CCOC(=O)N1CCN=C1SCc1ccc(C(F)(F)F)cc1
57) CC1CN(C(=O)Nc2cccc(C(F)(F)F)c2)CC(C)O1 (stereo not given)
58) O=C1c2ccccc2C(=O)N1Nc1ccccc1
59) S=C1NCN(Cc2ccccc2)CN1C1CCCCC1

Assay by compound	49	50	51	52	53	54	55	56	57	58	59
Vif A3G	2%	-8%	22%	-4%	-2%	nt	1%	nt	nt	0%	-7%
HNF4A DNA FP	-0.4	-1.7	-0.1	3.5	0.9	-1.1	0.5	-5.5	1.2	-0.1	3.8
RanGTP-Imp inh	5.3	5.0	3.3	3.0	nt	nt	-0.3	0.5	0.2	-2.3	-0.3
Beta2AR agonist	26	5	-2	5	6	1	-32	-9	-7	1	19
LANA-H2B inh	-3.9	0.3	-4.1	-0.9	nt	2.3	3.4	-7.6	6.2	-2.7	2.0
ALR H2O2 inh	-15	-15	17	-14	nt	-4	-10	-1	1	nt	-6
Calb FLC	-2	10	-2	67	nt	nt	20	11	-6	0	-10
